# Screening results deposited in PubChem BioAssay by several laboratories.
# Ecoli growth = blocks Escherichia coli growth. OD600, 23 h; active compounds read low. OD600 absorbance (test concentration not listed). hit rate 0.21% among 330,000;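 active = OD600 absorbance below the run mean of sample wells minus 3.6 SD, in any replicate, cut at about 0.56 in these data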;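 also: stock transfer was 300 nL into about 60 µL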
# ALR inh = blocks human ALR sulfhydryl oxidase activity; P55789; AID 485317; hit rate 3.8% among 290,000; purified ALR, DTT oxidation, H2O2 HRP-luminol luminescence; inhibition, % (concentration not given with the values);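 active = mean and each replicate at 75% or more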;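 also: stock transfer was 7.5 nL into about 7.5 µL; 0% = neutral wells and 100% = wells with inactivated enzyme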
# UCH37 inh = inhibitors of human deubiquitinating enzyme UCH37; Q9Y5K5; hit rate 0.33% among 330,000; AID 588478; inhibition, % (test concentration not listed); purified proteasome/UCH37, Ub-AMC cleavage fluorescence;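 active = mean of two replicates above 20%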;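 also: 0% = compound-free wells with enzyme and 100% = wells lacking proteasome; stock transfer was 100 nL into about 20 µL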
#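 Material: Human UCH37 enzyme supplied as purified proteasome complex | Schedule: 30 min preincubation with enzyme, 25 min cleavage at room temperature | Detection: AMC fluorescence 355/460 nm | Measure: % inhibition of Ub-AMC cleavage fluorescence | Controls: Wells without proteasome as full block, compound-free enzyme plus substrate as uninhibited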
# HNF4A DNA FP = change in binding of human HNF4 alpha to DNA | P41235 | hit rate 0.3% among 360,000 | HNF4a-FITC DNA binding, fluorescence polarization, 1 h | activity change, % at 10 µM; in the data active = activity change above about 30%, passing the limit was not always enough;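 also: controls were the assay level and a saturating level of protein; the project sought stronger binding though the title names inhibitors; some compounds called inactive have numbers as strong as hits; positive values seem to mean higher polarization but the record does not say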
# Target sequence (P41235 whole entry, looked up): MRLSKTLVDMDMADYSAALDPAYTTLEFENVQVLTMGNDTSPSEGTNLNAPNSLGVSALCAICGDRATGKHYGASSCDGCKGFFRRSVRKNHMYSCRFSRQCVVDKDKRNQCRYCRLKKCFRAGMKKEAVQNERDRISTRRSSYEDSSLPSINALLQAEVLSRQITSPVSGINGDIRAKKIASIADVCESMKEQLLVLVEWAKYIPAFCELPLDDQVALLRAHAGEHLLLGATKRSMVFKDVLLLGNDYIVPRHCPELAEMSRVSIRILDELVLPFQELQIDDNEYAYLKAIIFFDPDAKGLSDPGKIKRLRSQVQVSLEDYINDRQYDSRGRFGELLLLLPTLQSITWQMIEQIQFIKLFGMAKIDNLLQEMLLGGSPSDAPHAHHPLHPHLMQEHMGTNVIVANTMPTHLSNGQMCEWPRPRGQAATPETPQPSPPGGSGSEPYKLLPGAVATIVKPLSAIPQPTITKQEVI
# rRNA inh HTS = inhibitors of bacterial rRNA selective over humanized ribosomes; hit rate 1.6% among 350,000; E. coli WT GFP vs humanized-ribosome RFP mutants, fluorescence, 24 h; active compounds read low; DMSO median 0, no signal -100; GFP signal change (wild-type ribosome), % (no concentration beside the values);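 active = significant combined selectivity score with lowered wild-type GFP, culture density cut under 30%, mutant RFP and density less affected; inactive = any of these conditions unmet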; also: one replicate is shown; some compounds called inactive have numbers as strong as hits
# B2AR ag = human beta-2 adrenergic receptor agonism by FAP. response, % (concentration not given with the values). AID 504454. Am2.2-beta2AR cells, FAP receptor internalization, flow cytometry; reference of the scale not given here. P07550. hit rate 0.43% among 340,000;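 active = response above a set limit, near 3 SD of response in nonfluorescent compounds, cut at about 42% in these data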;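 also: stock transfer was 100 nL into about 11 µL; a reference agonist was the positive control; negative values mostly stem from fluorescent compounds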
# Target sequence (P07550 whole entry, looked up): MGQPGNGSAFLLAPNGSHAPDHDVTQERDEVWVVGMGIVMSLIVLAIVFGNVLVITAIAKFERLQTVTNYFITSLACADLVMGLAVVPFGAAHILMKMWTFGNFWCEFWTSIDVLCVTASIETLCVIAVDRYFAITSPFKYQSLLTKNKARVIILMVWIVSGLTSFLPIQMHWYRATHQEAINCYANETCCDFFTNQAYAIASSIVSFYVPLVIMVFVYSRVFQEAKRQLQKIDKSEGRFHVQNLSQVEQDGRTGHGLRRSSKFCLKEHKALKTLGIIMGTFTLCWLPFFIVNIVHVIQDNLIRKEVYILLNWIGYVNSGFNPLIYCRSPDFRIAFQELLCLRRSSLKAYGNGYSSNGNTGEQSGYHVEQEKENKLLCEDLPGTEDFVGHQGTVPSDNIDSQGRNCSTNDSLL
# FGF22 binding = FGF22 (human) thermal shift binding; Q9HCT0; recombinant FGF22 thermal shift, SYPRO orange fluorescence; percent of sucrose octasulfate shift, DMSO zero; calls only at 9.99 µM; hit rate 1.5% among 340,000; AID 651658;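 active = melting point raised past a set limit in the mean and every replicate; three in four hits are not shown here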
# rRNA inh HTS OD600 = also measured in rRNA inh HTS; calls as there; OD600 change, %; measured here: OD600 growth;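 optical density of the mix in the first replicate; 0 = DMSO median and -100 = no signal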
# rRNA inh HTS RFP = recorded beside rRNA inh HTS, whose call it bears; RFP signal change, %; measured here: RFP humanized mutant strains;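 first replicate; 0 = DMSO median and -100 = no signal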
# An asterisk follows results filed as active; i = inactive; . = not tested or not shown. This is a subset; rates above refer to the full screens.
no. | Ecoli growth | ALR inh | UCH37 inh | HNF4A DNA FP | rRNA inh HTS | molecule | rRNA inh HTS OD600 | rRNA inh HTS RFP | B2AR ag | FGF22 binding
1 | 0.62 | -19 | 0.0 | 3.5 | 10 | CC(NC(=O)CN1CCN(Cc2cccc(F)c2)CC1)c1ccccc1 (configuration not stated) | 10 | 2.1 | 0 | i
2 | . | -8 | . | -3.1 | 12 | CCOc1ccc(/C=N/NC(=O)CCC(=O)Nc2ccc(F)cc2)cc1 | 9 | 0.8 | 10 | i
3 | 0.67 | 6 | 7.1 | 4.0 | . | O=C(CCC1CCCCC1)Nc1c2c(nn1-c1ccc(F)cc1)CS(=O)(=O)C2 | . | . | 4 | .
4 | 0.71 | -4 | -1.3 | 3.1 | 9 | C/C=C/c1ccc(OCC(=O)OCc2csc(CC(=O)Nc3ccccc3C)n2)c(OC)c1 | 8 | 1.5 | -1 | i
5 | 0.63 | -6 | 1.1 | -1.0 | . | CC(=O)c1cccc(S(=O)(=O)NC2CCCCCC2)c1 | . | . | -3 | .
6 | 0.63 | . | 1.9 | 0.8 | -55 | S=C(Nc1ccc(Br)cc1)N1CCn2cccc2C1c1cccnc1 (configuration not stated) | -52 | -17 | 6 | i
7 | 0.65 | 5 | -0.6 | 0.8 | . | Cc1cc2cc(CCNC(=O)c3ccc(Br)o3)c(=O)[nH]c2cc1C | . | . | 6 | .
8 | . | . | . | -1.6 | 22 | CCc1nc2ccc(C(=O)N3CCN(S(=O)(=O)CC)CC3)cn2c1N(CC)CCN(C)C | 25 | 4.5 | . | i
9 | . | . | . | -1.0 | 6 | CCCN1CCN(C(=O)Cn2nc(C)n3c(cc4c(OC)cccc43)c2=O)CC1 | 14 | -1.8 | -4 | i
10 | 0.64 | -38 | -0.7 | -0.8 | 6 | COCc1cc(CN(C)C(=O)C2CCC(=O)N(Cc3cccc(OC)c3)C2)[nH]n1 (configuration not stated) | 9 | -1.6 | 3 | i
11 | 0.66 | 0 | -404 | 0.4 | 3 | CC1CC(NC(=O)c2cc3c(=O)n4ccccc4nc3n2C)CC(C)(C)C1 (configuration not stated) | 6 | -1.8 | 5 | i
12 | 0.63 | 3 | 4.8 | -3.7 | -12 | CCCSc1nsc(NC(=O)CCC)n1 | -15 | -9.6 | -9 | i
13 | 0.71 | 8 | 7.2 | 2.8 | -1 | CC(C)c1ccc(OCC(=O)N(Cc2ccco2)C2CCS(=O)(=O)C2)cc1 (configuration not stated) | 13 | -1.1 | -3 | i
14 | 0.66 | . | 2.9 | 4.4 | -32 | COc1ccc(OCC(=O)O/N=C(\N)c2ccc(OC)cc2)cc1 | -30 | -0.1 | -2 | i
15 | 0.73 | 9 | 2.4 | 3.0 | . | O=C(NC1=NCCS1)c1ccc(Cl)c(S(=O)(=O)N2CCCCC2)c1 | . | . | -10 | .
16 | 0.74 | -10 | -2.7 | 15 | . | O=S(=O)(c1cc(F)cc(F)c1)N1CCN(c2ncccn2)CC1 | . | . | 0 | .
17 | 0.67 | 7 | -1.4 | 2.5 | . | O=C(/C=C/c1ccc(-c2ccccc2)o1)c1ccccc1 | . | . | 3 | .
18 | 0.67 | -3 | -0.3 | -0.1 | . | O=C(c1ccco1)N1CCN(c2ncnc3sc4c(c23)CCC4)CC1 | . | . | -2 | .
19 | 0.69 | -2 | 2.7 | -0.3 | 2 | Cc1cc2oc(=O)cc(CN(C)Cc3cccc(F)c3)c2cc1C | 5 | -8.8 | -8 | i
20 | 0.79 | 2 | 3.3 | -0.7 | . | N#Cc1c(-c2ccccc2)nc(N2CCOCC2)[nH]c1=O | . | . | 2 | .

# Quoted from the results shown (two entries):
no. | Ecoli growth | ALR inh | UCH37 inh | HNF4A DNA FP | rRNA inh HTS | molecule | rRNA inh HTS OD600 | rRNA inh HTS RFP | B2AR ag | FGF22 binding
11 | 0.66 | 0 | -404 | 0.4 | 3 | CC1CC(NC(=O)c2cc3c(=O)n4ccccc4nc3n2C)CC(C)(C)C1 (configuration not stated) | 6 | -1.8 | 5 | i
12 | 0.63 | 3 | 4.8 | -3.7 | -12 | CCCSc1nsc(NC(=O)CCC)n1 | -15 | -9.6 | -9 | i

# (cont.)
no. | Ecoli growth | ALR inh | UCH37 inh | HNF4A DNA FP | rRNA inh HTS | molecule | rRNA inh HTS OD600 | rRNA inh HTS RFP | B2AR ag | FGF22 binding
21 | 0.7 | -7 | 0.8 | -0.7 | . | CCc1ccccc1NC(=O)CSc1nnc(-c2ccco2)n1N | . | . | -9 | .
22 | 0.75 | 6 | 3.7 | -7.5 | . | O=C(NCc1cccc(C(F)(F)F)c1)c1cc(Cl)cc(Cl)c1 | . | . | -2 | .
23 | 0.71 | -18 | 0.3 | 12 | . | COc1ccc(S(=O)(=O)N2CCCCC2)cc1NC(=O)c1ccc2c(c1)OCO2 | . | . | -5 | .
24 | 0.72 | -4 | 2.5 | -0.6 | 2 | Cc1cccc(C(=O)NCCC(=O)Nc2nc(C)c(Cc3ccc4c(c3)OCO4)s2)c1 | 0 | -2.2 | 6 | i
25 | . | -4 | . | 3.9 | 5 | O=C(COc1ccccc1F)NNC(=O)Cc1ccc(S(=O)(=O)N2CCOCC2)s1 | 4 | 0.4 | -4 | .
26 | 0.69 | 6 | 2.7 | 0.7 | 2 | Cc1cccc(N2CCN(C(=O)CCn3c(=S)[nH]c4cc5c(cc4c3=O)OCO5)CC2C)c1 (configuration not stated) | 0 | 6.2 | 1 | .
27 | 0.71 | -2 | 4.3 | 1.1 | 10 | CC(=O)Nc1ccc(C(=O)NC(C)c2ccc(-n3ccnc3)cc2)cc1 (configuration not stated) | 15 | 1.4 | -1 | i
28 | 0.76 | -2 | 2.0 | 3.2 | . | O=C(CSc1nnc(C23CC4CC(CC(C4)C2)C3)o1)Nc1ccc(N2CCOCC2)c(Cl)c1 | . | . | -8 | .
29 | 0.67 | . | 4.6 | 1.3 | -28 | COc1cccc(CNC(=O)COC(=O)c2cc([N+](=O)[O-])ccc2N2CCCC2)c1 | -25 | 7.5 | 0 | i
30 | 0.7 | 0 | -1.0 | 6.0 | 4 | Cc1ccn2c(CNCCn3nc(C)cc3C)c(C(=O)N3CCCCCC3)nc2c1 | 5 | -0.2 | -2 | .
31 | 0.75 | -9 | -0.3 | 0.2 | . | O=C(O)CCC(=O)N1CCc2cc(S(=O)(=O)NC3CCCc4ccccc43)ccc21 (configuration not stated) | . | . | 11 | .
32 | 0.68 | -4 | 5.3 | -5.1 | -34 | O=C(Nc1cccc(Cl)c1)N1CCc2ccccc2C1 | -56 | -11 | -1 | .
33 | . | . | . | 2.5 | 26 | CCOc1ccccc1CN1[C@@H](c2ccc(OC)cc2)CC(C(=O)OC)(C(=O)OC)[C@H]1c1ccccc1 | 23 | 2.5 | . | i
34 | 0.66 | . | 2.2 | 1.2 | . | CS(=O)(=O)c1cccc(C(=O)Oc2ccccc2)c1 | . | . | 5 | .
35 | 0.67 | . | -19 | -4.4 | . | CCN1CCc2c(C#N)c(N3CCCCC3)nc(NCc3ccccc3)c2C1 | . | . | 18 | .
36 | 0.67 | 4 | 1.4 | -3.7 | -3 | O=C(Nc1ccc(N2CCCCC2)c(S(=O)(=O)Nc2ccccc2Cl)c1)c1cccnc1 | -6 | 4.9 | -3 | i
37 | 0.66 | -10 | 3.3 | 0.8 | 24 | CC1CC(Nc2ccccc2)=NC1(C)C (configuration not stated) | 9 | -0.5 | 1 | i
38 | 0.69 | 3 | 3.7 | -0.1 | 10 | COc1ccc(NC(=O)CC2SC(=NCC3CCCO3)NC2=O)cc1 (configuration not stated) | 9 | 1.2 | 1 | i
39 | . | . | . | -2.3 | 12 | O=C1CCCC(=O)N1CCCCCCN1C(=O)CCCC1=O | 16 | -2.2 | . | i
40 | 0.62 | -2 | 1.4 | -0.8 | -3 | Cc1ccc(S(=O)(=O)NC(=NC2CCCCC2)c2ccccc2)cc1 | -13 | 3.1 | -5 | i

# Reformatted in transposed form: entries from further up
16: O=S(=O)(c1cc(F)cc(F)c1)N1CCN(c2ncccn2)CC1
17: O=C(/C=C/c1ccc(-c2ccccc2)o1)c1ccccc1
18: O=C(c1ccco1)N1CCN(c2ncnc3sc4c(c23)CCC4)CC1
19: Cc1cc2oc(=O)cc(CN(C)Cc3cccc(F)c3)c2cc1C

assay / compound | 16 | 17 | 18 | 19
Ecoli growth | 0.74 | 0.67 | 0.67 | 0.69
ALR inh | -10 | 7 | -3 | -2
UCH37 inh | -2.7 | -1.4 | -0.3 | 2.7
HNF4A DNA FP | 15 | 2.5 | -0.1 | -0.3
rRNA inh HTS | . | . | . | 2
rRNA inh HTS OD600 | . | . | . | 5
rRNA inh HTS RFP | . | . | . | -8.8
B2AR ag | 0 | 3 | -2 | -8
FGF22 binding | . | . | . | i

# Next compounds follow.
no. | Ecoli growth | ALR inh | UCH37 inh | HNF4A DNA FP | rRNA inh HTS | molecule | rRNA inh HTS OD600 | rRNA inh HTS RFP | B2AR ag | FGF22 binding
41 | 0.74 | -3 | 1.7 | -0.6 | 8 | CCCN(CCC)S(=O)(=O)c1ccc(N2CCCC2=O)c([N+](=O)[O-])c1 | 8 | -2.6 | -2 | i
42 | 0.72 | -1 | -0.8 | -1.2 | . | COC(=O)c1ccc(NC(=O)c2ccc3c(c2)OCO3)cc1 | . | . | 3 | .
43 | 0.67 | 23 | 2.1 | -2.5 | . | O=S(=O)(c1ccccc1)N1CCN(S(=O)(=O)N2CCCCC2)CC1 | . | . | 4 | .
44 | 0.7 | 1 | 0.6 | 8.0 | -4 | Cc1ccc(NC(=S)N2CCC(c3nc4ccccc4s3)CC2)cc1C | 5 | -1.8 | -1 | i
45 | 0.68 | 3 | 4.2 | 0.7 | -5 | CN(C)C(CNC(=O)c1ccc(NS(=O)(=O)c2ccc(F)cc2)cc1)c1ccco1 (configuration not stated) | 4 | 6.0 | 2 | i
46 | 0.75 | 4 | -16 | -1.8 | . | CC(C(=O)N1c2ccccc2CCc2ccccc21)n1nnc(-c2ccc(N(C)C)cc2)n1 (configuration not stated) | . | . | 1 | .
47 | 0.72 | 5 | 3.7 | 2.8 | 5 | Cc1ccc(NC(=O)CCC(=O)c2ccc(Br)cc2)cc1 | 11 | -2.2 | -3 | i
